Choline anaer gr: inhibitors of anaerobic choline-dependent gram-negative bacterial growth; calls only; actives 0.2% (n = 55,000); Gram-negative bacterium anaerobic choline minimal medium, absorbance growth; hits give low values; many inactives read as strong as hits in the columns shown;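 active means growth z-score on choline under -2 at 7 or 20 h with little or no fall on glycerol, limits in tiers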;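 further: stock transfer was 300 nL into about 50 µL; the organism is E. coli; final concentration not given here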
Choline anaer gr early: second read-out of Choline anaer gr, no call of its own (marks repeat the call); z-score; measured here: choline growth z-score, timepoint 1;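 score of optical density at 7 h as mean of two plates; lower means less growth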
The depositor's hits bear a star; i = inactive; + = active, no number; & = joins results of further samples.

Compound	Choline anaer gr early	Choline anaer gr
COc1ccc(N2CCN(CCCNC(=O)c3c(-c4ccncc4)noc3C)CC2)cc1	0.26	i
O=C(CN1C(=O)CC(c2cccc(Cl)c2)=Nc2cccnc21)Nc1ccc2c(c1)CCC2	0.37	i
Cc1cc(C(Nc2ccccn2)c2ccccc2)c(NC(=O)c2ccccc2)s1 (stereo unspecified)	-0.13	i
CCC(C)NS(=O)(=O)c1ccc(-c2n[nH]c(C)c2C)o1 (stereo unspecified)	-0.79	i
O=C(NCc1cccnc1)c1ccc(CSc2nc3cccnc3n2Cc2ccccc2)cc1	1.4	i
CCc1ccc(NC(=O)C(CC)n2nc(-c3ccccc3)ccc2=O)cc1 (stereo unspecified)	0.75	i
Cc1csc(-c2cc(S(=O)(=O)N3CCOCC3)cn2CC(=O)N2CCCC2)n1	0.25	i
Cc1cc(Sc2ccc(NC(=O)Nc3ccc(C)c(F)c3)cc2)n2ncnc2n1	2.4	i
Cn1c(SCC(=O)Nc2ccc3[nH]c(=O)[nH]c3c2)nnc1-c1cc2ccccc2o1	-2.1	i
CN1CCN(c2ccc(NC(=O)C3CCC3)c(C(=O)O)c2)CC1	0.37	i
CC(C)(C)c1ccc(C(=O)Nc2ccc3c(c2)NC(=O)CO3)cc1	-0.72	i
O=C(CN1C(=O)COc2ccc(C(=O)N3CCCC3)cc21)N1CCCCC1	-0.33	i
Cc1nc(NC(=O)C2CCC2)n[nH]1	-0.05	i
O=S(=O)(NC1COc2ccc(Br)cc2C1)c1ccc(C2CCCCC2)cc1 (stereo unspecified)	-0.35	i
COc1cc(OC)cc(C(=O)Nc2nc(CC(=O)Nc3ccc(F)c(Cl)c3)cs2)c1	-0.89	i
CC(C)n1cnc(S(=O)(=O)N2CCCC(C(=O)Nc3nccs3)C2)c1 (stereo unspecified)	0.72	i
CC1CCN(c2ccc(NC(=O)c3ccccc3Cl)c(C(=O)O)c2)CC1	-3.2*	+
CCCCOc1ccc(C(=O)CCN2CCCCC2)cc1	0.1&-2.2	i
O=c1c2cccnc2nc(SCc2cc(=O)n3ccccc3n2)n1CC1CCCO1 (stereo unspecified)	-0.59	i
C=C1C(=CC=C2CCC[C@@]3(C)C2CCC3C(C)C=CC(O)C2CC2)CC(O)CC1O (stereo partly specified)	0.47	i
CCc1c(C)nc2ncnn2c1Sc1ccc(NS(=O)(=O)c2ccc(Br)cc2)cc1	1.1	i
COc1ccc(C2=NC3(CCCCC3)N(CC(=O)Nc3ccc(C)c(C)c3)C2=O)cc1	0.89	i
Cc1sc(-c2cc(C(F)(F)F)on2)cc1S(=O)(=O)NCc1ccc(F)cc1	0.18	i
CC(=O)Nc1c(C)nn(-c2ccccc2)c1N1CCC(C(=O)NCc2cccc(Cl)c2)CC1	-0.48	i
COc1ccc(N2CCN(c3nccc4ccc(C(=O)NCc5ccccc5)cc34)CC2)cc1	0.41	i
O=C(NCc1ccc(Br)cc1)c1ccc(-c2ccc(F)cc2)nc1	-0.51	i
CCC(=O)N1CCc2cc(S(=O)(=O)NC(C(=O)N3CCC(Cc4ccccc4)CC3)C(C)C)ccc21 (stereo unspecified)	1.4	i
NC(=O)CSc1nnc2c3ccccc3nc(-c3ccc(F)cc3)n12	-0.3	i
Cc1sc2ncc(C(=O)NC3CCCCC3)c(=O)n2c1C	0.65	i
O=C(CCn1c(N2CCCC2)nc2ccsc2c1=O)N1CCN(c2ccccn2)CC1	-0.2	i
COc1ccc2oc(-c3noc(-c4ccoc4)n3)c(C)c2c1	1.8	i
CCc1ccc(NC(=O)CSc2nc(-c3ccc(C(C)C)cc3)no2)cc1	0.47	i

Shown with two lines to a compound: 2 of the compounds above
The line under a structure holds: Choline anaer gr early	Choline anaer gr
> O=C(CCn1c(N2CCCC2)nc2ccsc2c1=O)N1CCN(c2ccccn2)CC1
 : -0.2	i
> COc1ccc2oc(-c3noc(-c4ccoc4)n3)c(C)c2c1
 : 1.8	i

Next part
Compound	Choline anaer gr early	Choline anaer gr
Cc1cccc2c(=O)cc(C(=O)Nc3nnc(C(C)C)s3)oc12	-1.6	i
Cc1cc(C)n2nc(CN(C(=O)CC(C)C)c3ccccc3)nc2n1	-1.3	i
O=C(Nc1ccc(F)cc1F)c1nnc(C2CCN(S(=O)(=O)c3ccc(F)cc3)CC2)s1	0.16	i
COc1ccc(NS(=O)(=O)c2ccc3c(c2)C(C)(C)CN3CC(=O)N2CCCC2)c(OC)c1	0.29	i
CCC(C)(C)NC(=O)C1CCCN(S(=O)(=O)c2cc(-c3noc(C4CCC4)n3)cs2)C1 (stereo unspecified)	-2.4	i
Cc1ccc(-c2nc3c4ccccc4n(CC(=O)Nc4cc(C)cc(C)c4)c(=O)n3n2)cc1	-0.88	i
CCCCCCCCCCC/C=C\C(C)(C)/C=C\CCCC(=O)O	0.74&-0.28	i
O=C(NCCc1ccc(Cl)cc1)C1CCN(S(=O)(=O)c2cccc3cccnc23)CC1	-0.41	i
O=C(NCc1nc(-c2ccc3c(c2)Sc2ccccc2C(=O)N3C2CC2)no1)c1ccccc1	0.25	i
Cc1nn(CC(=O)N2CCCC2)c(C)c1S(=O)(=O)N1CCCC(C(=O)Nc2cccc(F)c2)C1 (stereo unspecified)	-0.22	i
C[C@]12C=CC(=O)C=C1CCC1C2[C@@H](O)C[C@@]2(C)C1CC[C@]2(O)C(=O)COP(=O)(O)O (stereo partly specified)	0.68	i
O=C1Nc2ccccc2C1c1c(-c2ccc3ccccc3c2)[nH]c2[nH]c(=O)[nH]c(=O)c12 (stereo unspecified)	1.1	i
C=Cc1ccc(Cn2c(=O)n(Cc3ccc(C(=O)NC(C)C)cc3)c(=O)c3cc(OC)c(OC)cc32)cc1	0.41	i
CCc1ccc(-n2c(=O)c3cccnc3n2CC(=O)Nc2cccc(Br)c2)cc1	0.19	i
CCN1C(=O)COc2ccc(-c3noc(C4CCCN(S(=O)(=O)c5ccc(C)cc5)C4)n3)cc21 (stereo unspecified)	0.68	i
COC(=O)c1cc(C)nc2c1c(=O)n(Cc1ccncc1)c(=O)n2-c1ccccc1OC	0.35	i

Entries of single compounds from above. Values in the order: Choline anaer gr early	Choline anaer gr
COc1cc(OC)cc(C(=O)Nc2nc(CC(=O)Nc3ccc(F)c(Cl)c3)cs2)c1 reads -0.89	i
O=C(CN1C(=O)COc2ccc(C(=O)N3CCCC3)cc21)N1CCCCC1 reads -0.33	i
CCc1ccc(NC(=O)C(CC)n2nc(-c3ccccc3)ccc2=O)cc1 (stereo unspecified) reads 0.75	i
CCC(C)NS(=O)(=O)c1ccc(-c2n[nH]c(C)c2C)o1 (stereo unspecified) reads -0.79	i
Cc1csc(-c2cc(S(=O)(=O)N3CCOCC3)cn2CC(=O)N2CCCC2)n1 reads 0.25	i

Further records follow:
Compound	Choline anaer gr early	Choline anaer gr
NC(=O)C1CCN(C(=O)c2ccc(CN3C(=O)CCn4nc(-c5cccc(Cl)c5)cc43)cc2)CC1	-0.81	i
Cc1cc(-c2csc(S(=O)(=O)Nc3cccc(Br)c3)c2)on1	0.02	i
Cc1nnc2sc(-c3cccc(Cl)c3)nn12	-0.01	i
O=C(NCCc1ccccc1)c1ccc(N2C(=O)CCS2(=O)=O)cc1	-0.13	i
O=C(c1cn2ccncc2n1)N1CCOCC1	1.1	i
Cn1c(SCC(=O)O)nnc1-c1ccc2c(c1)OCCCO2	-0.43	i
CC(C)(CO)Cc1cc(C(C)(C)C)c(O)c(C(C)(C)C)c1	0.79&0.83	i
CCc1nnc(NC(=O)CN2C(=O)C3CCCCN3c3ccc(S(=O)(=O)N(C)C)cc32)s1 (stereo unspecified)	0.01	i

Sorted by count of non-hydrogen atoms (smallest number first): part of the list above
Compound	Choline anaer gr early	Choline anaer gr
CC(C)(CO)Cc1cc(C(C)(C)C)c(O)c(C(C)(C)C)c1	0.79&0.83	i
Cn1c(SCC(=O)O)nnc1-c1ccc2c(c1)OCCCO2	-0.43	i
O=C(NCCc1ccccc1)c1ccc(N2C(=O)CCS2(=O)=O)cc1	-0.13	i

Following part.
Compound	Choline anaer gr early	Choline anaer gr
O=S(=O)(c1cccc(F)c1)N1CCN(c2ncnc3c2nnn3-c2ccccc2)CC1	0.58	i
COc1ccc(-c2c(C)nn3c2NC(=O)CCC3=O)cc1S(=O)(=O)NCC1CCCO1 (stereo unspecified)	0.38	i
O=C(Nc1nccs1)C1CCCN(S(=O)(=O)c2c[nH]c(C(=O)N3CCCC3)c2)C1 (stereo unspecified)	0.65	i
COC(=O)c1ccc(CN2CCCC2c2cc(C(C)C)on2)cc1 (stereo unspecified)	1.4	i
CCCc1cc(=O)n2[nH]c(CNc3ccccc3Cl)nc2n1	0.08	i
O=C1NCCN1Cc1ccc(Cl)cc1	0.73	i
CCOC(=O)N1CCC2(CC1)N=C(c1ccc(C)c(C)c1)CC(c1ccccc1O)N2 (stereo unspecified)	0.16	i
CCOc1cccc(CN2C(=O)c3ccccc3CC2(C)C(=O)NCc2ccccc2)c1 (stereo unspecified)	1.5	i
O=C(NCCN1CCc2ccccc2C1)c1cn2c(n1)CSCC2	0.64	i
Cc1cccc2c(=O)c(NC(=O)NCCCO)c[nH]c12	-1.1	i
CC1=C(c2ccc(C)cc2)S(=O)(=O)N(CC(=O)NCc2cccc(C)c2)C1=O	0.73	i
CCc1nc2nc(C)cc(N3CCN(c4cc(Cl)ccc4C)CC3)n2n1	-0.28	i
O=C(O)c1cc(NS(=O)(=O)c2ccc3c(c2)CCCC3)cnc1N1CCCC1	-0.83	i
COc1ccccc1NC(=O)N1Cc2c(sc3c2CCN(C)C3)-n2cccc2C1C (stereo unspecified)	0	i
CCc1cc(C2CCCN2S(=O)(=O)c2ccc(C(C)(C)C)cc2)on1 (stereo unspecified)	0.98	i
O=C(c1cnc2sc3c(n2c1=O)CCCC3)N(Cc1ccccc1)Cc1ccccc1	1.4	i
OCCNCCNCc1ccc(-c2cccc(Cl)c2)o1	-0.45	i
CN(C(=O)c1cccc(N2C(=O)CCS2(=O)=O)c1)C1CCS(=O)(=O)C1 (stereo unspecified)	0.05	i
Cc1ccccc1-c1cc2n(C)c(C)c(CCC(=O)N3CCCC3)c(=O)n2n1	-0.47	i
CCn1c(=O)c(N2CCC(C(=O)NCCc3c[nH]c4ccc(C)cc34)CC2)nc2ccccc21	0.34	i
CNC(=O)N1CCc2cc(S(=O)(=O)NC3CCCCC3)ccc21	-0.29	i
CC1CCCN(C(=O)Cn2c(=O)c3ccccc3n3c(=S)sc(-c4ccccc4)c23)C1 (stereo unspecified)	0.29	i
CCc1ccc(NC(=O)c2ccc(-c3nccc(Oc4ccccc4OC)n3)cc2)cc1	0.25	i
CC1CCCCN1S(=O)(=O)c1cc(-c2nnc(C3CC3)o2)co1 (stereo unspecified)	0.59	i
CCOc1ccc(NC(=O)CSc2nnc(C(=O)Nc3cccc(Cl)c3)s2)cc1	0.14	i
c1ccc(C2C3=C(CCCC3)Nc3nnnn32)cc1 (stereo unspecified)	0.66	i
O=C(CCc1nc(CSc2n[nH]c(-c3ccccc3)n2)no1)Nc1ccccc1	-0.5	i
Cc1ccc2c(c1)Oc1ccc(S(=O)(=O)N3CCCCC3C)cc1C(=O)N2 (stereo unspecified)	0.13	i
Cc1ccc(NC(=O)NCCn2c(-c3ccc(F)cc3)nc3cccnc32)cc1Cl	-0.03	i
Cc1ccc(-c2nc3c4ccccc4n(CC(=O)c4ccc(C)cc4C)c(=O)n3n2)cc1	-1.5	i
COc1ccccc1-c1cc(C(=O)N2CCCC2c2c(C)noc2C)no1 (stereo unspecified)	0.03	i
CCN(CC)S(=O)(=O)c1ccc2c(c1)CC(C(=O)N1CCN(Cc3ccccc3)CC1)N2C(C)=O (stereo unspecified)	-0.14	i
O=C(Nc1cc(-c2cccc(Cl)c2)no1)c1cc(-c2cccnc2)nc2ccccc12	-0.3	i
CCOc1ccc(S(=O)(=O)N2CCC(c3noc(-c4ccccc4)n3)CC2)cc1	-1.2	i
CCC(C)CC(C)CCCCCCCCC(=O)NC1CC(O)C(NCCN)NC(=O)[C@@H]2C(O)CCN2C(=O)[C@@H](C(O)CCN)NC(=O)[C@H](C(O)C(O)c2ccc(O)cc2)NC(=O)[C@@H]2CC(O)CN2C(=O)[C@H](C(C)O)NC1=O (stereo partly specified)	-2.5	i
Cc1noc(C)c1C1CCCN1C(=O)c1cc(-c2cccc(Cl)c2)on1 (stereo unspecified)	-0.5	i
O=C(CSc1nnc2c3sc(N4CCCC4)nc3ncn12)NC1CCCCC1	-0.72	i
COc1cccc(NC(=O)N2CC=C(c3c[nH]c4ccccc34)CC2)c1	-2.5	i
CCc1ccc2c(c1)-c1ccccc1S(=O)(=O)N2CC(=O)N(C)C	-0.59	i
CCOc1c(C(=O)OC)sc2ccc(NC(=O)Nc3cccc(F)c3)cc12	-0.15	i
CCC(C(=O)Nc1cc(F)ccc1F)n1nc(C)c2c(C)n(-c3ccccc3)nc2c1=O (stereo unspecified)	-0.12	i
O=C(Nc1ccc2nc3n(c(=O)c2c1)CCCC3)Nc1ccc(Br)cc1F	-0.99	i
Cn1nc(-c2nc(-c3ccccc3)no2)c2c1CCN(S(=O)(=O)c1ccc3c(c1)CCCC3)C2	-0.65	i
O=C(C1CCN(c2nn3c(=O)c4c(nc3s2)CCCC4)CC1)N1CCN(C2CCCCC2)CC1	-0.96	i
CCn1c(=O)c2sccc2n2c(CCC(=O)NC3CCCC3)nnc12	-0.43	i
Cn1cnc2c1c(=O)[nH]c(=O)n2C	0.08&0.68	i
COC(=O)c1ccccc1NC(=O)c1ccc(CN2CC(=O)N3CSCC3C2=O)cc1 (stereo unspecified)	-1.1	i
CC/C=C\C/C=C\C/C=C\CCCCCCCCCCCC(=O)O	-3.3*	+
COc1ccc(-c2cc3nc(C)cc(NC4CCCC4)n3n2)cc1OC	-0.43	i

This is a subset. The share of hits here may be higher or lower than overall.
